# From PubChem BioAssay
# UCH37 inh = human UCH37 deubiquitinating enzyme inhibition | purified proteasome/UCH37, Ub-AMC cleavage fluorescence | inhibition, % (concentration not given with the values) | 330,000 tested, 0.33% active | Q9Y5K5;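 active means mean of two replicates above 20%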;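 further: 0% = compound-free wells with enzyme and 100% = wells lacking proteasome; stock transfer was 100 nL into about 20 µL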
# Target sequence (Q9Y5K5 whole entry, looked up): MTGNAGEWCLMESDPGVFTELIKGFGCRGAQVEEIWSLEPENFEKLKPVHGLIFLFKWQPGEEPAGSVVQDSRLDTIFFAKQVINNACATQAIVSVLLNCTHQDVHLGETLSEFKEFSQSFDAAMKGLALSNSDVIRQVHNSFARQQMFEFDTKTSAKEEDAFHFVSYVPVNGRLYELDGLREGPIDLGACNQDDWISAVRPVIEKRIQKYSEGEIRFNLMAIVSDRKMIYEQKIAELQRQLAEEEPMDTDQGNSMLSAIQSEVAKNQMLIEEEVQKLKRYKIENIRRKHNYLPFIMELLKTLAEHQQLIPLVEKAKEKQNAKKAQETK
#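 Schedule: 30 min plus 25 min, room temperature / Material: human UCH37 within purified proteasomes / Technique: AMC fluorescence intensity at 355/460 nm / Buffer or medium: pH 7.4 Tris-HCl (50 mM) with ovalbumin, ATP-MgCl2, DTT / Controls: wells without proteasome as full block, compound-free enzyme plus substrate as uninhibited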
# T cruzi inh = T. cruzi replication inhibition; T. cruzi beta-gal in NIH3T3, luminescence, 90 h; inhibition, % (concentration not given with the values); 300,000 tested, 1.4% active;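 active means mean inhibition across valid replicates above about 55%, limit read from the data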;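 further: signal also drops with host cell toxicity which is not excluded here; 0% = plate median of DMSO wells and 100% = zero luminescence signal; higher percent means less beta-gal luminescence so fewer parasites; stock transfer was 50 nL into about 50 µL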
# AF4-AF9 inh = MLL-AF4/AF9 protein interaction inhibition; P42568; AlphaScreen, biotin-AF4 peptide binding to FLAG-AF9; inhibition, % at 10 µM; 350,000 tested, 0.47% active; AID 651704;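 active means every replicate reaching a set inhibition limit, whatever the replicate mean, cut at about 25% in these data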;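 further: 0% = plate neutral control median and 100% = total signal loss; the record names both 10 and 1 µM as test concentration; the first replicate is given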
# Target sequence (P42568 whole entry, looked up): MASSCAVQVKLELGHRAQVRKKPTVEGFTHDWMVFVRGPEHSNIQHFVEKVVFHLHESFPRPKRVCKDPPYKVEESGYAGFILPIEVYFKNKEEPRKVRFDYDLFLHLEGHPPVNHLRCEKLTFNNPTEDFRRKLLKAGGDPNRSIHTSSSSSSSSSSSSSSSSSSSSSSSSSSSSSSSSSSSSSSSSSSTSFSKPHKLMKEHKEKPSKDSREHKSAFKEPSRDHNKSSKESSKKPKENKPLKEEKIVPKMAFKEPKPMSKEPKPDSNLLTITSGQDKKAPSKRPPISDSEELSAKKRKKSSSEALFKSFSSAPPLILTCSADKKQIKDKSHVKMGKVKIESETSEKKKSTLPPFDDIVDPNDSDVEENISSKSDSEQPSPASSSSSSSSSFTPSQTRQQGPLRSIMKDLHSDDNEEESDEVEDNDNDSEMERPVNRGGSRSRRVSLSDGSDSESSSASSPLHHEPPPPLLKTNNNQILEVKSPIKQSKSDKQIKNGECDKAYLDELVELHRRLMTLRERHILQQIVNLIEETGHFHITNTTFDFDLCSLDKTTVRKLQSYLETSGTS
# rRNA inh HTS = inhibitors of bacterial rRNA selective over humanized ribosomes; E. coli WT GFP vs humanized-ribosome RFP mutants, fluorescence, 24 h; hits give low values; DMSO median 0, no signal -100; GFP signal change (wild-type ribosome), % (test concentration not listed); 350,000 tested, 1.6% active; AID 720706;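 active means significant combined selectivity score with lowered wild-type GFP, culture density cut under 30%, mutant RFP and density less affected; inactive means any of these conditions unmet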; further: one replicate is shown; some compounds called inactive have numbers as strong as hits
# Bfl-1 A1 inh = inhibitors of the anti-apoptotic protein A1, read as caspase activation | MEF A1-2A-BIM cells, Caspase-Glo 3/7 luminescence, 3 h; percent of clofoctol response, vehicle zero | caspase activation, % (no concentration beside the values) | 330,000 tested, 0.066% active | AID 2462;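 active means over half of replicate activation scores above 10%, or exactly half above 10 with the replicate mean above 10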;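 further: wells of about 30 µL received 50 nL stock; many hits fall short of the cut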
# Beta cell apopt = blocks beta cell apoptosis; 300,000 tested, 0.8% active; INS-1E cytokine-induced death, ATP luminescence, 48 h; percent of positive-control rescue, neutral wells zero; protection from apoptosis, % (test concentration not listed);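 active means all replicates at 75% or more, or half of them and the mean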;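 further: 0% = cytokine-treated negative control wells and 100% = positive control rescue; higher means more ATP so stronger rescue from cytokine killing; wells of about 40 µL received 100 nL stock; the first replicate is given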
# E coli growth = E. coli growth inhibition; Escherichia coli growth, OD600, 23 h; hits give low values; OD600 absorbance (test concentration not listed); 330,000 tested, 0.21% active; AID 1053175;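 active means OD600 absorbance below the run mean of sample wells minus 3.6 SD, in any replicate, cut at about 0.56 in these data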;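 further: stock transfer was 300 nL into about 60 µL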
# FGF22 binding = shifts melting point of recombinant human FGF22; Q9HCT0; recombinant FGF22 thermal shift, SYPRO orange fluorescence; percent of sucrose octasulfate shift, DMSO zero; calls only at 9.99 µM; 340,000 tested, 1.5% active; AID 651658;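 active means melting point raised past a set limit in the mean and every replicate; three in four hits are not shown here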
# Target sequence (Q9HCT0 whole entry, looked up): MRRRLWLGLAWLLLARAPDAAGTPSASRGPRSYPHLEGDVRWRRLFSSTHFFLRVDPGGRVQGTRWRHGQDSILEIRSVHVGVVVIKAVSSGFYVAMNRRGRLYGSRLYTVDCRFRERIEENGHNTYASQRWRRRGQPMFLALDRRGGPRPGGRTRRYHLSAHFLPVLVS
# rRNA inh HTS OD600 = recorded beside rRNA inh HTS, whose call it bears; OD600 change, %; measured here: OD600 growth;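 optical density of the mix in the first replicate; 0 = DMSO median and -100 = no signal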
# rRNA inh HTS RFP = also measured in rRNA inh HTS; calls as there; RFP signal change, %; measured here: RFP humanized mutant strains;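 first replicate; 0 = DMSO median and -100 = no signal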
# Numbers without * were called inactive; i = inactive; x = no result given; & = joins results of further samples.
SMILES,UCH37 inh,T cruzi inh,AF4-AF9 inh,rRNA inh HTS,rRNA inh HTS OD600,rRNA inh HTS RFP,Bfl-1 A1 inh,Beta cell apopt,E coli growth,FGF22 binding
Cc1ccc(N(Cc2ccccc2)C(=O)c2ccc(S(=O)(=O)N3CCOCC3)cc2)cc1,0.2,12,-5.3,-20,-31,-0.5,-1.3,4,0.68,i
CC(C)(C)OC(=O)[C@H](Cc1ccccc1)NC(=O)c1[nH]cnc1C(=O)Nc1ccc(Cl)cc1,x,31,3.6,11,6,-2.4,-0.2,10,x,i
O=P1(NC2CCCC2)OCC2(CO1)COP(=O)(NC1CCCC1)OC2 (centres undefined),3.0,x,0.2,5,14,-3.1,x,x,0.71,i
COc1ccc(-n2c(CCC(=O)O)ccc2-c2ccc(F)cc2)c(OC)c1,-0.9,-12,-1.2,-1,-5,-1.4,0.6,-2,0.7,i
Cn1c(SCC(=O)NNC(=O)Nc2ccc(Cl)cc2)nnc1-c1ccccc1,4.8,3,-0.2,14,0,-2.5,0.4,-3,0.73,i
CC1CCN(C(=O)CS(=O)(=O)Cc2ccccc2)CC1,-2.5,0,-2.2,6,12,-3.2,0.4,x,0.66,i
CCOc1ccc(NC(=O)CCCCn2c(=O)[nH]c3ccsc3c2=O)cc1,3.4,6,2.5,3,-2,-2.2,0.0,0,0.7,i
COc1ccc(NC(=O)NCC(C)CSc2ccc(C)cc2)c(OC)c1 (centres undefined),2.6,3,-0.3,-3,-12,5.3,0.7,-3,0.62,i
Cc1ccc(S(=O)(=O)c2cc3ccc(O)cc3oc2=O)cc1C,i,5,-5.7,-25,-46,-1.9,1.1,-9,0.61,i
Cc1ccccc1-c1nnc(CN2CCC(C)CC2)o1,3.1,8,0.7,-3,4,-1.5,-0.3,-3,0.64,i
Cc1nc(-c2ccc(S(=O)(=O)N3CCN(C4c5ccccc5-c5ccccc54)CC3)s2)cs1,-2.4,11,2.2,x,x,x,0.0,-2,0.72,i
Cc1ccc2nc(-c3ccc(NC(=O)CN(C)S(=O)(=O)c4ccccc4)cc3)sc2c1,x,-16,4.4,6,7,-1.1,-0.4,7,x,i
CC(CCc1ccccc1)NC(=O)CN1CCSc2ccccc21 (centres undefined),-0.1,7,8.3,-28,-48,-3.4,0.1,-3,0.62,i
CCOc1ccc(C(=O)N2CCN(Cc3ccccc3)CC2)cc1,0.7,-10,x,x,x,x,-0.2,-3,0.7,x
CC1(c2nnc(Cc3ccccc3)o2)CC(c2ccncc2)=NO1 (centres undefined),21*,-6,-4.2,4,10,-1.0,-0.2,-12,0.63,i
O=C(NC(=S)Nc1nc2c(s1)CSc1ccccc1-2)c1ccccc1,2.5,15,x,x,x,x,0.5,17,0.67,x
c1ccc(-c2ccc(C3=Nn4c(nnc4-c4cccs4)SC3)cc2)cc1,5.9,40,3.1,10,7,-2.1,0.5,x,0.72,i
CCOc1cc2sc(N3CCC(C(=O)NCCCN4CCCC4=O)CC3)nc2cc1Br,3.1,11,1.2,-1,-1,1.5,1.5,5,0.71,i
O=C(CC(NC(=O)c1ccccc1Cl)c1ccccc1)NCCc1ccc(Cl)cc1 (centres undefined),2.5,-9,x,x,x,x,0.4,3,0.69,x
COc1ccccc1NC(=O)NS(=O)(=O)c1ccc(C)cc1,1.1,-5,x,x,x,x,0.5,0,0.73,x
COCCn1c(/C=C/c2ccccc2)nc2ccccc21,-189,1,-1.0,-1,7,2.4,-5.3,15,0.69,i
O=C(NCCCNC(=O)c1ccccc1F)c1ccco1,-0.3,5,-0.4,1,12,2.1,-0.2,x,0.65,i
Cc1ccc(S(=O)(=O)NC(=O)NN2CC3CCCC3C2)cc1 (centres undefined),6.2,-14,-0.3,7&12,15&5,1.4&1.4,0.5,-3,0.68,i
CCN1CCN(c2ccc(S(=O)(=O)N3CCOCC3)cc2NC(=O)/C=C/c2cccc(OC)c2OC)CC1,0.6,19,9.6,-5,-1,1.0,-0.2,-6,0.67,i
Cc1oc(-c2ccccc2F)nc1CS(=O)(=O)CC(=O)NC(C)CCc1ccccc1 (centres undefined),-1.4,15,-2.7,-16,-17,1.1,0.9,2,0.69,i
CC(C)(C)OC(=O)C[C@@H]1C/C=C\C[C@H](CC(=O)N[C@H](CO)Cc2ccccc2)C(=O)N[C@@H](Cc2ccccc2)COC1=O,-1.5,x,-0.2,-7,0,-1.2,-0.2,1,x,i
COc1ccc(-c2csc3nc(-c4cccnc4)nc(Cl)c23)cc1OC,2.1,-47,3.2,-12,-9,-2.0,-0.1,19,0.69,i
Cc1ccc2c(c1)C(=O)N(CCCCO)C2=O,1.3,-2,x,x,x,x,-0.1,5,x,x
COc1ccc(NC(=O)c2ccc3c(c2)N(C)CCS3)cc1,-2.7,17,0.9,-1,-10,-2.9,-3.5,4,0.7,i
O=S(=O)(NC1CCCCC1N1CCC(O)CC1)c1ccccc1 (centres undefined),3.0,-29,0.6,15,18,-1.5,-3.3,0,0.66,i
O=C(/C=C/c1ccc(Cl)c(Cl)c1)N1CCc2ccccc21,1.3,-10,1.1,15,16,-6.7,-0.4,8,0.73,i
C[C@H](NC(=O)c1nc[nH]c1C(=O)N1CCN(c2ccccc2)CC1)c1ccccc1,1.6,x,-0.1,-7,-9,7.7,0.3,-3,x,i
COc1ccc(NC(=O)C(CCSC)N2C(=O)c3ccccc3C2=O)cc1 (centres undefined),-1.2,-7,x,x,x,x,0.3,x,0.64,x
COC(=O)c1sccc1N/N=C/c1cccc(OC)c1O,x,-6,1.2,14,1,-0.6,-8.6,6,x,i
N#Cc1ccc(CN2CCN(C(=O)c3ccc(S(=O)(=O)N4CCCCCC4)cc3)CC2)cc1,6.4,x,1.9,0,9,-0.5,0.1,3,0.68,i
COC(=O)c1ccccc1S(=O)(=O)N1CCC(C(=O)Nc2ccc(N3CCOCC3)cc2)CC1,3.0,x,3.3,-27,-22,-0.1,1.1,2,0.67,i
C=C1CCN([C@@H](C)C(=O)NCc2ccc(OC)cc2)S(=O)(=O)c2ccccc21,3.0,-8,x,-1,1,-5.3,1.2,0,x,i
Fc1cccc(-n2cc(-c3ccccc3)c3c(=S)nc[nH]c32)c1,x,10,-2.5,-55,-78,-20,1.2,17,x,i
CCOC(=O)CN(C(=O)CNC(=O)c1cccs1)C(C(=O)NC1CCCC1)c1cccnc1 (centres undefined),0.8,-7,x,x,x,x,-0.9,-4,0.73,x
Cc1ccc(Nc2nc(N)nc(COC(=O)C3=COCCO3)n2)cc1,1.5,x,-4.4,5,12,0.5,-3.6,1,0.64,i

# The closing 2 compounds of the section above open the next one.
SMILES,UCH37 inh,T cruzi inh,AF4-AF9 inh,rRNA inh HTS,rRNA inh HTS OD600,rRNA inh HTS RFP,Bfl-1 A1 inh,Beta cell apopt,E coli growth,FGF22 binding
CCOC(=O)CN(C(=O)CNC(=O)c1cccs1)C(C(=O)NC1CCCC1)c1cccnc1 (centres undefined),0.8,-7,x,x,x,x,-0.9,-4,0.73,x
Cc1ccc(Nc2nc(N)nc(COC(=O)C3=COCCO3)n2)cc1,1.5,x,-4.4,5,12,0.5,-3.6,1,0.64,i
CCOC(=O)C1CCCN(C(=O)c2cc3c(=O)n(C)c4ccccc4c3n2C)C1 (centres undefined),6.2,6,0.5,-7,-2,-1.0,-0.5,-3,0.78,i
O=C(COC(=O)Cc1ccsc1)Nc1ccc(Br)cc1,1.9,x,-4.5,-10,-4,4.2,x,x,0.69,i
CCOC(=O)c1nn(-c2ccc(C)cc2)cc1O,-1.8,-7,x,x,x,x,-3.4,-5,0.63,x
Cc1cccc(N2CCCC2=Nc2ccc(Br)cc2C#N)c1,-1.5,11,x,x,x,x,0.1,-1,0.72,x
CC1(C)CC(=O)c2c(nn(-c3ccccc3)c2-c2ccncc2)C1,2.0,-9,x,x,x,x,0.0,-7,0.75,x
CCOc1ccccc1NC(=O)C(OC(=O)C1CC1)c1ccccc1 (centres undefined),3.3,-1,6.2,-28,-35,-11,0.4,-4,0.73,x
Cc1cccc(OCCNC(=O)c2cccc(Oc3ccc(C(F)(F)F)cc3[N+](=O)[O-])c2)c1,4.6,10,x,x,x,x,-1.2,1,0.73,x
O=C1CCC(=O)N1c1cccc(OS(=O)(=O)c2ccccc2)c1,-18,-10,x,x,x,x,0.5,-3,0.69,x
O=C(Cn1nnc2ccccc21)NCc1ccccc1,-1.2,-2,x,x,x,x,-7.8,1,0.71,x
CCN1CCN(C(=O)/C=C/c2ccc(C)o2)CC1,5.5,-18,x,x,x,x,0.3,-1,0.66,x
CNC(=O)/C(C#N)=C/c1c(N2CCCCCC2)nc2c(C)cccn2c1=O,-100,-8,4.6,10,-3,1.6,0.3,-1,0.69,i
COc1ccc2nc(Cl)c(/C=N/Nc3ccccn3)cc2c1,x,19,0.7,20,7,-0.9,-1.4,5,x,i
N/C(CC1CC1(Cl)Cl)=N\OC(=O)c1ccccc1 (centres undefined),4.6,1,0.0,-2,5,-2.5,-0.6,-12,0.65,i
C[C@@H]1CN([C@@H](C)CO)C(=O)c2cc(NC(=O)Nc3ccc(F)cc3)ccc2O[C@@H]1CN(C)Cc1ccc(Oc2ccccc2)cc1,2.8,x,5.0&6.4,2&5,-16&-9,9.3&16,0.0,59,x,i
N#CC1=C(N)S[C@H](C(=O)C23CC4CC(CC(C4)C2)C3)[C@H]1c1ccncc1,1.7,26,x,x,x,x,0.1,-1,0.74,x
O=C(c1ccco1)N1CCN(C(=O)c2cc3sccc3n2Cc2ccccc2)CC1,5.9,-12,x,x,x,x,0.6,4,0.71,x
COc1cc(OC)c(N(C)S(=O)(=O)c2cccc(C(=O)OCC(=O)N(C)C3CCCCC3)c2)cc1Cl,2.2,x,0.9,10,3,2.1,x,x,0.74,i
O=C(OCCN1CCOCC1)c1ccc(O)cc1,6.2,2,-15,18,16,1.8,0.0,-6,0.67,i

# Record cards, as listed above. Values in the order: UCH37 inh, T cruzi inh, AF4-AF9 inh, rRNA inh HTS, rRNA inh HTS OD600, rRNA inh HTS RFP, Bfl-1 A1 inh, Beta cell apopt, E coli growth, FGF22 binding
# Cc1ccccc1-c1nnc(CN2CCC(C)CC2)o1 is entered as 3.1, 8, 0.7, -3, 4, -1.5, -0.3, -3, 0.64, i
# N#Cc1ccc(CN2CCN(C(=O)c3ccc(S(=O)(=O)N4CCCCCC4)cc3)CC2)cc1 is entered as 6.4, x, 1.9, 0, 9, -0.5, 0.1, 3, 0.68, i
# Cc1oc(-c2ccccc2F)nc1CS(=O)(=O)CC(=O)NC(C)CCc1ccccc1 (centres undefined) is entered as -1.4, 15, -2.7, -16, -17, 1.1, 0.9, 2, 0.69, i
# CCOc1ccc(NC(=O)CCCCn2c(=O)[nH]c3ccsc3c2=O)cc1 is entered as 3.4, 6, 2.5, 3, -2, -2.2, 0.0, 0, 0.7, i

# The list is partial, so the mix of outcomes need not match the whole.
